High-throughput results (PubChem BioAssay)
Cruzain inh Det = blocks cruzain activity in presence of Triton detergent; P25779; purified cruzain, Z-FR-AMC fluorescence, 0.01% Triton; Potency, µM, for the others: max response, negative = inhibition, most hits filed as inhibitors; actives 0.43% (n = 200,000); AID 1478;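 note: plate controls were neutral wells for no effect and buffer without enzyme for full effect; nearly all actives have a fitted effect of over 40% in size; top concentration of the series not given in the record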
Target sequence (P25779 123-467 limits assumed): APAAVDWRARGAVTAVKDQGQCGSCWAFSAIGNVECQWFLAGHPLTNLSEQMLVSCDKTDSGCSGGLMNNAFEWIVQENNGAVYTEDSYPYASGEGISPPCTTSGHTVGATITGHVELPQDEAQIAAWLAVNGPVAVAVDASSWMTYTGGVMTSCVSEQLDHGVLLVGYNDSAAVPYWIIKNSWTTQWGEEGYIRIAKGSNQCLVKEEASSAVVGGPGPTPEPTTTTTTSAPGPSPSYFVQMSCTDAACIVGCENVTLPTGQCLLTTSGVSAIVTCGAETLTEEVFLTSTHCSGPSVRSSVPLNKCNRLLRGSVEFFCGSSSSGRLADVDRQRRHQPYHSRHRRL
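Detergent-containing run (0.01% Triton X-100) in acetate buffer pH 5.5 with 5 mM DTT: enzyme at 1.5 nM final, 15 min compound preincubation at room temperature, then 2 uM Z-FR-AMC substrate. Activity taken as 60 s fluorescence increase at 360/450 nm.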
LASV entry inh = Lassa virus entry inhibition; Lassa virus pseudotype entry inhibition, cell reporter; control for the full effect not named in the record; Potency, µM (doses to about 37.9 µM), inactives show top-dose activity change, negative = inhibition, usual class: inhibitors; actives 1.2% (n = 300,000); active means well fitted inhibition curve with a large enough effect; inconclusive means small, poorly fitted or top-dose-only effect, or effect the other way; inactive means flat fitted curve, though single readings scatter; tested in HEK293 cells; note: % is set by controls: 0 for no effect and ±100 for the full control effect; nearly all actives have a fitted effect of over 50% in size; luciferase read-out
SARS PLP yeast = inhibitors of SARS-CoV papain-like protease in yeast; Potency, µM (titrated, usually from 32.9 µM), for the others: top-dose activity, positive = growth rescue; actives 0.19% (n = 330,000); S. cerevisiae expressing SARS-CoV PLpro, growth rescue; control for the full effect not named in the record; active means well fitted rising curve with a large enough effect; inconclusive means small, poorly fitted or top-dose-only effect; inactive means no such curve, though single readings can be large or run the other way; note: 0% is about no effect; nearly all actives have a fitted effect of over 55% in size; growth read by luminescence after 48 h
RE007 growth inh = less growth of the S. pombe RE007 Vpr strain | Potency, µM (titrated, usually from 92.2 µM), inactives show at the top dose activity change, negative = less growth | S. pombe RE007 Vpr strain, BacTiter-Glo ATP luminescence, 24 h; control for the full effect not named in the record | AID 651644 | actives 0.21% (n = 360,000); active = well fitted falling curve with a large enough effect; inconclusive = small, poorly fitted or top-dose-only effect; inactive = no such curve, though single readings can be large or run the other way;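 note: % is set by controls: 0 for no effect and ±100 for the full control effect; nearly all actives have a fitted effect of over 50% in size; the assay follows cell death caused by Vpr and the record does not say whether a fall means rescue or toxicity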
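Fission yeast strain RE007, carrying one chromosomally integrated HIV-1 vpr copy, was seeded at OD 0.01 in PMG+AL medium with 23 nL pinned compound. After 24 h at 30 °C and 99% humidity, viability was read by BacTiter-Glo luminescence.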
MARV entry inh = Marburg virus entry inhibition | Marburg virus pseudotyped entry inhibition, cell reporter; control for the full effect not named in the record; about a third of the inactives were read at about 46 µM | Potency, µM (top dose mostly 37.8 µM), without a hit: top-dose activity change, negative = inhibition, usual class: inhibitors | AID 540276 | actives 1.8% (n = 300,000); active = well fitted inhibition curve with a large enough effect; inconclusive = small, poorly fitted or top-dose-only effect, or effect the other way; inactive = flat fitted curve, though single readings scatter; tested in HEK293 cells; about a fifth of its hits are not listed in these tables; note: % is set by controls: 0 for no effect and ±100 for the full control effect; luciferase read-out
StopGo reporter = FMDV 2A StopGo reporter, luciferase signal; human cells with a luciferase reporter of 2A StopGo recoding; control for the full effect not named in the record; Potency, µM (titrated, usually from 57.9 µM), inactives show at the highest dose signal change, negative = less light; actives 1.2% (n = 410,000); active = well fitted falling curve with a large enough effect; inconclusive = small, poorly fitted or top-dose-only effect; inactive = no such curve, though single readings can be large or run the other way; tested in HEK293T cells; note: % is set by controls: 0 for no effect and ±100 for the full control effect; nearly all actives have a fitted effect of over 45% in size; luciferase light after 4 h
Cruzain noTriton = cruzain (T. cruzi) inhibition without detergent | P25779 | purified cruzain, Z-FR-AMC fluorescence, no detergent | Potency, µM, inactives show max response, negative = inhibition, actives largely listed as inhibitors | actives 2.3% (n = 200,000);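 note: plate controls were enzyme without inhibitor for no effect and buffer without enzyme for full effect; nearly all actives have a fitted effect of over 40% in size; top concentration of the series not given in the record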
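Detergent-free condition (0.00005% Triton X-100) in acetate buffer pH 5.5 with DTT. 1.5 nM enzyme and compound were pre-mixed 15 min, then 2 uM Z-FR-AMC substrate added; reaction progress from fluorescence change between first and third reads (60 s).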
NS1 inh = influenza NS1 inhibition; actives 0.4% (n = 270,000); S. cerevisiae slowed by influenza A NS1, growth recovery by OD600; Potency, µM (titrated, usually from 46.1 µM), for the others: top-dose activity, positive = more growth; active means well fitted rising curve with a large enough effect; inconclusive means small, poorly fitted or top-dose-only effect; inactive means no such curve, though single readings can be large or run the other way; note: nearly all actives have a fitted effect of over 50% in size
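A cell-based growth assay was used: compounds that relieve NS1-induced slow growth of budding yeast raise OD600. Assay medium was yeast nitrogen base with ammonium sulphate and -URA supplement, pH 6.0, with 2% galactose.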
* = called active by the depositor; u = inconclusive; x = no result given; & = joins results of further samples; [ ] = another dose, or the depositor's remark. Unless noted, calls come from the whole dose curve; as a rule, active = well fitted curve in the direction sought with a large enough effect; inconclusive = small, poorly fitted or top-dose-only effect, or another doubt; inactive = no such curve, though single readings can be large; an effect the other way counts as inactive or inconclusive. Potency is the fitted concentration of half-maximal effect.

cpd	smiles	Cruzain inh Det	LASV entry inh	SARS PLP yeast	RE007 growth inh	MARV entry inh	StopGo reporter	Cruzain noTriton	NS1 inh
1	O=C(Cc1n[nH]c(=O)c2ccccc12)Nc1ccc(-c2nnc3n2CCCCC3)cc1	-1.5%	-15%	1%	-13%	-4%	16%	-10%	1%
2	COc1ccccc1/C=[N+](\[O-])C1SC(=S)N(C)C1(C)C (stereo not given)	x	x	1%	1%	x	1%	x	-2%
3	COc1cc(/C=N/NC(=Nc2ccc(C)cc2)c2nc3ccccc3s2)ccc1O	-3.6%	13µM*	-4%	-12%	u	18µM*	-9%	-5%
4	CCOC(=O)N1CCN(C(=O)CSCc2nc(-c3ccccc3F)oc2C)CC1	3.9%	-6%	-1%	11%[3.69 µM]	u	-28%	9%	-1%
5	c1ccc2c(c1)[nH]c1c(N3CCC4(CC3)OCCO4)ncnc12	-9.4%	u	-16%	-5%	u	u	-7%	0%
6	Cc1c(Br)c([N+](=O)[O-])nn1C(C)C(=O)N1CCCc2ccccc21 (stereo not given)	-0.3%	-14%	-8%	-9%	-5%	x	-5%	7%
7	Cc1cc(NC(=O)C2C3C(=O)N(CCC(C)C)C(C(=O)NCc4ccccc4)C34C=CC2(C)O4)no1 (stereo not given)	2.0%	2%	3%	-8%	-24%&-24%	8%	-4%	-11%
8	C=CCSc1ncc(-c2ccccc2)cn1	x	19%	-2%	-13%	17%[46.1 µM]	21%	x	x
9	Cc1cc(C(=O)N/N=C2\CC(=O)CC(C)(C)C2)c2ccccc2n1	-2.8%	4%	8%	4%	u	-4%	-8%	u
10	COc1ccc(N2Cc3ccc(OC)c(OC)c3C2=O)cc1	x	x	-1%	6%	x	47%[activator]	x	-32%
11	Cc1c(Nc2cc(N3CCCC(C)C3)c3nonc3c2[N+](=O)[O-])c(=O)n(-c2ccccc2)n1C (stereo not given)	-8.7%	u	7%	-5%	7%	2%	-4%	13%
12	O=C(N/N=C/c1ccc([N+](=O)[O-])o1)c1ccc(O)cc1	-7.8%	u	5%	-5%[18.4 µM]	u	-22%	-6%	-1%
13	CSc1ccccc1NC(=O)CN(C)CC(=O)Nc1ccccc1C(F)(F)F	x	1%	0%	4%	u	-13%	x	x
14	Cc1ccccc1N(C(=O)Cc1c[nH]c2ccccc12)C(C(=O)NC1CCCCC1)c1ccco1 (stereo not given)	0.4%	-25%	-2%	-19%	23%	-10%	u	8%
15	CC1CCc2c(c3ccccc3[nH]c2=O)O1 (stereo not given)	-6.9%	6%	7%	7%	1%	-10%	0%	-7%
16	CCn1c(COc2c(C)cccc2C)nnc1SCc1nc2ccccc2c(=O)[nH]1	x	-17%	-1%	1%	u	-17%	x	-6%
17	Fc1ccc(N2N=C(c3cccs3)CC2c2ccccc2)cc1 (stereo not given)	x	-11%	-6%	-18%	12%[46.1 µM]	-2%	x	x
18	Cc1cc(C)c(OCC(O)CN2CCN(C(=O)c3ccccc3)CC2)c(C)c1 (stereo not given)	x	x	3%	1%	x	-13%	x	-18%
19	Brc1cc2c(cc1C1OCCCO1)OCO2	x	u	x	-17%	u	-9%	x	x
20	COc1ccccc1NC(=O)COC(=O)c1ccccc1C(=O)N1CCN(c2ccccc2)CC1	x	u	-1%	1%	-5%	u	x	0%
21	CCOc1c(Cl)cc(/C=C/C(=O)N(CC)CC(=O)NCc2cccs2)cc1OC	x	3%	x	3%	-6%	-14%	x	x
22	Cn1nnc2c(N3CCCCC3)ncnc21	-1.5%	u	x	x	x	-19%	-4%	x
23	Nc1ccc(-c2nc3ccc(C(=O)O)cc3s2)cc1	25µM*	0.46µM*	-9%	-8%	0.46µM*	u	u	0%
24	O=C(COC(=O)c1cccnc1Cl)NCc1ccco1	x	3%	2%	-8%	-6%[46.1 µM]	26%	x	x
25	Cc1cccc(C)c1N1CCN(C(=O)Cn2cncn2)CC1	x	-13%	-5%	1%	1%[46.1 µM]	-19%	x	x
26	COC(=O)c1cc(C#N)c(Oc2cccc(C)c2C)nc1C	-1.4%	9%	5%	8%	-9%	-22%	-2%	-6%
27	CCN(CC(=O)NCc1cccs1)C(=O)c1ccc(S(=O)(=O)N(C)C)cc1	x	5%	0%	5%	-17%[46.1 µM]	4%	x	x
28	COc1ccc(N2CCN(C(=O)c3cc4c(C)nc5ccccc5c4o3)CC2)cc1	x	x	-30%	-8%	x	u	x	-19%
29	O=C(Cc1c(Cl)cccc1Cl)Nc1cccnc1	x	-12%[46.1 µM]	3%	8%	-20%[46.1 µM]	11%	x	x
30	Cc1c(-c2nsc(NC(=O)c3cccs3)n2)nnn1-c1ccc(Cl)cc1	0.1%	-2%[46.1 µM]	x	x	x	34%[activator]	u	x
31	CC(OC(=O)CNC(=O)c1ccc2ccccc2c1)C(=O)NC1CCCCC1C (stereo not given)	x	8%	-4%	-4%	8%[46.1 µM]	3%	x	-10%
32	O=C(Nc1cc(S(=O)(=O)N2CCOCC2)ccc1Cl)c1ccncc1	x	u	0%	2%	u	-2%	x	x
33	NS(=O)(=O)c1ccc(CCNC(=O)CSc2ccsc2[N+](=O)[O-])cc1	x	0%	0%	-3%	7%	0%	x	x
34	O=C(NC1CCCCC1)C(c1cccnc1)N(C(=O)c1csnn1)c1ccccc1F (stereo not given)	x	-6%	-1%	-10%	24%[46.1 µM]	13%	x	-3%
35	Cc1ccc(C(=O)c2cnc3ccccc3c2-c2ccccc2)cc1	-1.4%	-21%	-19%	-14%	-13%	u	5%	-45%
36	Cc1cccc2cc(CN(CC3CCCO3)C(=S)Nc3ccccc3)c(=O)[nH]c12 (stereo not given)	-3.8%	u	-15%	16%	u	-2%	18%	-11%
37	Cc1ccc(NC(=O)C2CCCN(c3cnccn3)C2)cc1Cl (stereo not given)	-6.0%	-5%[46.1 µM]	x	x	18%[46.1 µM]	-12%	20%	x
38	CC(C)CN(C(=O)CN1CCCCCC1)c1c(N)n(CC(C)C)c(=O)[nH]c1=O	x	u	4%	-17%	5%[46.1 µM]	15%	x	x
39	O=C(NC1CCCCCC1)c1ccc(CS(=O)(=O)Cc2ccccc2F)o1	x	x	2%	-4%	x	1%	x	-2%
40	COCCN1C(=O)N(c2cccc(OC)c2)C(=O)C1CC(=O)Nc1ccc(OC)cc1 (stereo not given)	x	u	4%	-9%	3%	10%	x	-3%
41	Cc1ccccc1N(CC(=O)O)S(C)(=O)=O	2.6%	-4%	-8%	0%	8%	-14%	8%	-8%
42	CN1C(=O)c2[nH]nc(-c3ccc(F)cc3)c2C1c1ccccn1 (stereo not given)	-1.6%	16%[46.1 µM]	x	x	-5%[46.1 µM]	-13%	-12%	x
43	Cc1cc(Cl)c2oc(C(=O)N3CCN(c4cccc(C)n4)CC3)c(C)c2c1	x	16%	-1%	-29%	-2%	56%[activator]	x	-42%
44	COc1cc(OC)c(OC)cc1CN1CCN(c2ccccc2OC)CC1	1.1%	31%[14.3 µM]	-1%	1%	-15%	-1%	-10%	9%
45	COc1ccc(S(=O)(=O)NC(CC(=O)O)c2ccco2)cc1 (stereo not given)	0.7%	9%	24%	-1%	u	-2%	4%	12%
46	COc1cc(CN2CCNC(=O)C2CC(=O)N2CCCO2)cc(OC)c1 (stereo not given)	x	12%[46.1 µM]	0%	15%	5%	-5%	x	2%
47	CCO[C@H]1OC(C(=O)N2CCOCC2)=C[C@@H](c2coc3ccccc3c2=O)[C@@H]1CCCO	x	x	-2%	3%	x	-19%	x	-2%
48	CCCCOCCCNC(=O)CCCOc1ccccc1	2.7%	1%	7%	0%	9%	-16%	2%	-9%
49	C=CCSc1nnc(-c2nnc(SCC=C)n2-c2ccccc2)n1-c1ccccc1	0.7%	u	7%	-6%	-4%	-18%	-3%	1%
50	COc1ccc2[nH]cc(/C=N/NS(=O)(=O)c3ccc(C)cc3)c2c1	x	x	4%	12%	x	-21%	x	-9%

Other structures.
cpd	smiles	Cruzain inh Det	LASV entry inh	SARS PLP yeast	RE007 growth inh	MARV entry inh	StopGo reporter	Cruzain noTriton	NS1 inh
51	COc1ccc2c(CC(=O)OCC(=O)Nc3ccc4c(c3)OCO4)coc2c1	-1.5%	3%	-3%	-16%	5%	-8%	0%	-16%
52	Cc1ccc(-n2c(SCC(=O)NCC3CCCO3)nc3n[nH]c(C)c3c2=N)cc1Cl (stereo not given)	-5.3%	u	2%	19%	u	u	u	-23%
53	CCC1/C(=N\O)CC(c2ccco2)NC1c1ccco1 (stereo not given)	-4.6%	3%	-3%	4%	-15%	-24%	10%	u
54	O=C(COC(=O)c1cc([N+](=O)[O-])ccc1N1CCOCC1)c1ccc(Br)cc1	x	u	2%	5%	u	u	x	x
55	O=C(NCCCc1nc2ccccc2n1Cc1ccc(Cl)cc1)C1CCCCC1	-10%	-9%[46.1 µM]	x	x	u	u	6%	x
56	Cn1c(Cn2c3ccccc3c3ccccc32)n[nH]c1=S	x	x	-2%	10%	x	-1%	x	7%
57	O=C(CSc1nccc(=O)[nH]1)c1ccco1	x	-6%	15%	17%	-17%[46.1 µM]	-4%	x	11%
58	O=C(Nc1ccc(F)cc1)N1CCCC(c2nc3c(nnn3Cc3ccccc3Cl)c(=O)[nH]2)C1 (stereo not given)	x	-24%	0%	-4%	u	-14%	x	x
59	CCCCNC(=O)c1ccc2c(c1)N(CC)C(=O)c1ccccc1S2	1.3%	u	x	x	x	0%	1%	x
60	O=[N+]([O-])c1cccc(C(=S)N2CCN(c3ccccc3)CC2)c1	-14%	-3%	6%	-5%	15%	u	-22%	10%
61	CCCc1cc(=O)oc2c(C)c(OCC(=O)Nc3ccc(CN4CCOCC4)cc3)ccc12	x	x	0%	4%	x	u	x	14%
62	CN(C)CCCN1C(=O)C(O)=C(C(=O)c2cc3ccccc3o2)C1c1ccccn1 (stereo not given)	x	-7%	x	7%	1%[46.1 µM]	-16%	x	x
63	Cc1cc2cc3c(cc2nc1SCC(=O)Nc1nc(C)c(C)s1)OCO3	4.7%	u	2%	-8%	u	-3%	32µM*	-1%
